VACV mCherry inh: inhibitors of vaccinia virus infection (mCherry reporter signal). Vaccinia virus mCherry reporter infection, fluorescence; about a quarter of the inactives have no number. AID 720579. Potency, µM (top dose mostly 36.5 µM), for inactives: at the highest dose activity change, negative = inhibition, actives largely listed as inhibitors. 310,000 tested, 0.63% active; active = well fitted inhibition curve with a large enough effect; inconclusive = small, poorly fitted or top-dose-only effect; inactive = no such curve, though single readings can be large or run the other way; tested in A549 cells; note: nearly all actives have a fitted effect of over 35% in size; inactives centre near -10
Vaccinia Venus: inhibitors of vaccinia virus (Venus reporter) | Potency, µM (series often up to 36.5 µM), without a hit: at the top dose activity change, negative = inhibition, hits mostly inhibitors | 330,000 tested, 0.46% active | Vaccinia virus Venus reporter expression, fluorescence; active means well fitted inhibition curve with a large enough effect; inconclusive means small, poorly fitted or top-dose-only effect; inactive means no such curve, though single readings can be large or run the other way; tested in A549 cells; note: nearly all actives have a fitted effect of over 30% in size; inactives centre near -10
The depositor's hits bear a star; i = inactive; u = inconclusive; x = no result given; [ ] = remark or other dose. % is set by controls: 0 for no effect and ±100 for the full control effect; potency is the fitted concentration of half-maximal effect.

SMILES | VACV mCherry inh | Vaccinia Venus
CC1(c2ccc3c(c2)OCCCO3)NC(=O)N(CC(=O)Nc2cccc(C#N)c2)C1=O (stereo not given) | -18% | -15%
CCCCC(=O)N=c1sc2cc([N+](=O)[O-])ccc2n1C | i | -13%
COc1cccc(NC(=O)CCc2nc(-c3cccs3)no2)c1 | -10% | -9%
CC1CN(C(=O)c2ccc(NS(=O)(=O)c3cccc(Cl)c3)cc2)CC(C)O1 (stereo not given) | -10% | -2%
Cc1ccc(C(=O)NC2CCN(CC(=O)Nc3ccccc3Cl)CC2)cc1 | i | -10%
Cc1cc(Cl)cc(Cl)c1OCCCCN(C)C | -6% | -16%
O=C(O)C(Cc1cnc[nH]1)NS(=O)(=O)c1ccc(Cl)cc1 (stereo not given) | -13% | 0%
CC12CC(c3ccccc3O1)N(C(=O)c1ccco1)C(=S)N2c1ccc(F)cc1 (stereo not given) | u | u
CC1(C)Cc2c(C#N)c(N)sc(=S)c2CS1 | x | 11%
C[C@H](CO)N1C[C@H](C)[C@@H](CN(C)C(=O)C2CCCCC2)OCc2cn(nn2)CCCC1=O | 3% | 7%

Arranged by heavy-atom count (low to high): four of the compounds above
SMILES | VACV mCherry inh | Vaccinia Venus
Cc1cc(Cl)cc(Cl)c1OCCCCN(C)C | -6% | -16%
COc1cccc(NC(=O)CCc2nc(-c3cccs3)no2)c1 | -10% | -9%
Cc1ccc(C(=O)NC2CCN(CC(=O)Nc3ccccc3Cl)CC2)cc1 | i | -10%
CC1(c2ccc3c(c2)OCCCO3)NC(=O)N(CC(=O)Nc2cccc(C#N)c2)C1=O (stereo not given) | -18% | -15%

(continued)
SMILES | VACV mCherry inh | Vaccinia Venus
O=C(CCCC(=O)Nc1ccc(Br)cc1)N/N=C/c1ccccc1 | u | -18%
O=C(NCc1ccco1)/C(=C\c1cccs1)NC(=O)c1ccco1 | -2% | -13%
CCOC(=O)c1cc2c(=O)n3ccccc3nc2n(Cc2ccco2)c1=NC(=O)c1cc(C)cc(C)c1 | u | 10µM*
Cc1cccc(C)c1NC(=O)CN(C)C(=O)CCC(=O)N1CCOCC1 | -3% | -2%
NS(=O)(=O)c1ccc(NC(=S)NC(=O)C2CCCC2)cc1 | -3% | -4%
O=C(CCCN=C1NS(=O)(=O)c2ccccc21)OCC(=O)c1ccc(F)c(F)c1 | i | -18%
CCc1ccc(C(=O)c2cn(CC(=O)Nc3cc(OC)ccc3OC)c3ccc(C)cc3c2=O)cc1 | -16% | -11%
NC(=S)Nc1ccc(C(F)(F)F)cc1Cl | -9% | u
CCCc1nn(C)c(C(=O)Nc2ccc(Cl)cc2)c1Cl | -5% | -12%
Cc1ccccc1C(=O)c1cccn1CC(=O)NCc1ccccc1 | -13% | -7%
COc1ccc(Cc2nnc(SCc3nc4ccccc4c(=O)[nH]3)n2C)cc1 | -6% | -22%
COc1ccc(C)cc1NC(=O)Nc1ccccc1 | x | -23%
COc1cccc(C(=O)NNS(=O)(=O)c2ccccc2)c1 | i | -1%
COc1cc(C)c(Cl)cc1S(=O)(=O)N1CCSC1 | -4% | -11%
COc1ccc(C2(c3ccc(OC)cc3)NC(=O)N(CC(=O)NC3(C#N)CCCC3)C2=O)cc1 | -16% | -10%
O=C(Nc1ccccc1)c1ccc(C(=O)Nc2ccccc2)nc1 | i | -8%
CCOC(=O)c1scc(-c2ccc(C)cc2)c1S(=O)(=O)Nc1ccc(OC)c(Cl)c1 | -13% | 1%
Cc1ccc(-c2cc(C(=O)N/N=C/C=C/c3ccco3)c3ccccc3n2)cc1C | -11% | 1%
Cc1cc(S(=O)(=O)Nc2ccc(-c3ccc(N4CCCCCC4)nn3)cc2)c(C)cc1Cl | -15% | -19%
COc1ccc(-c2nn(-c3ccccc3)cc2/C=C/C(=O)OCC(=O)Nc2ccc(C#N)cc2)cc1 | -13% | -1%
COc1ccc(S(=O)(=O)NCCOc2ccccc2)cc1C | -14% | -14%
CCOC(=O)N1CCC(N(CCN(C)C)C(=S)Nc2cccc(C)c2)CC1 | -11% | -10%
Cc1cc(C)c(O)c(-c2cc(C(=O)Nc3ccc(S(=O)(=O)N4CCOCC4)cc3)[nH]n2)c1 | 10µM* | 13µM*
C/C=C(/C)C(=O)O[C@@H]1c2cc3c(c(OC)c2-c2c(cc(OC)c(OC)c2OC)[C@@H](OC(C)=O)[C@@H](C)[C@H]1C)OCO3 | i | -20%
COC(=O)c1cc2cc(Cl)ccc2nc1SC | -13% | -18%
COc1cc(OC)c2ccc(=O)oc2c1C(CC(=O)N1CCN(c2ccccc2)CC1)c1ccc2c(c1)OCO2 (stereo not given) | u | u
CCOC(=O)c1c(NC(=O)/C=C/c2ccc(C(C)C)cc2)sc2c1CCC2 | -14% | -8%
COc1cccc(C(=O)Nc2cc3cc(OC)ccc3oc2=O)c1 | 10% | 7%
CC(Sc1nncn1C)C(=O)Nc1nnc(-c2ccccc2)s1 (stereo not given) | -9% | 3%
CSC1=N/C(=C/c2cccnc2)C(=O)N1Cc1ccccc1 | -5% | -8%
Cc1ccc(C)c(N)c1 | -7% | -9%
Clc1ccc(OCCSc2ncccn2)cc1 | 0% | -22%
CCOc1ccc(N2C(=O)CC(N(C)Cc3ccccc3)C2=O)cc1 (stereo not given) | -22% | -11%
COc1ccccc1C(=O)N/N=C/c1ccc2c(c1)OCO2 | i | 0%
O=C(CSc1nc(-c2ccc(Cl)cc2)nc2c1Cc1ccccc1O2)N1CCCCC1 | -5% | -8%
COc1ccc(NC(=O)OCCN2CCN(Cc3ccccc3)CCC2=O)cc1 | -27% | -13%
O=C(CC1Nc2ccccc2NC1=O)NCC1COc2ccccc2O1 (stereo not given) | -16% | -9%
CC(C(=O)OCC(=O)Nc1cccc(S(=O)(=O)N(C)C)c1)N1C(=O)c2ccccc2C1=O (stereo not given) | -2% | -12%
COC(=O)c1c(NC(=O)CN2CCC(C(N)=O)CC2)c2c(C)cccc2n1C | x | -15%
CC12CCC(=O)N1C(C(=O)Nc1cc(Cl)ccc1N1CCCC1)CS2 (stereo not given) | i | -14%
O=C(COC(=O)CCc1ccccc1)NNC(=O)c1ccccc1 | -5% | -10%
CCN(C(=O)COC(=O)/C(=C/c1ccccc1)NC(C)=O)c1c(N)n(Cc2ccccc2)c(=O)[nH]c1=O | 0% | -16%
Cc1cc(N=Nc2ccccc2C)ccc1N | u | -23%
CN(C(=O)CN1C(=O)c2ccc([N+](=O)[O-])cc2C1=O)C1CCCCC1 | i | -2%
O=C1CC(=O)Nc2cc(S(=O)(=O)N3CCN(c4cccc(C(F)(F)F)c4)CC3)ccc2N1 | -1% | -3%
Cn1ccc(=S)c2ccccc21 | -10% | -5%
CC1=C(C(=O)Nc2ccc(C)cc2C)C(c2cccn2C)n2ncnc2N1 (stereo not given) | 1% | 8%
Cc1ccccc1-n1c(SCC(=O)Nc2ccc(Cl)cc2F)nnc1-c1cc2occc2n1C | -14% | -5%
CC(N)=NCc1cccc(CN)c1 | -13%[87.9 µM] | -4%[87.9 µM]
COc1ccc(C2CC(=O)c3cc(-c4nc(-c5cccc([N+](=O)[O-])c5)cs4)c(=O)n(-c4ccc(C)c(C)c4)c3C2)cc1 (stereo not given) | -13% | 9%

Further entries:
SMILES | VACV mCherry inh | Vaccinia Venus
O=C(Nc1ccc(S(=O)(=O)NCC2CCCO2)cc1)C1CC(=O)N(c2ccccc2)C1 (stereo not given) | 16% | -7%
CCCc1cc(=O)[nH]c(Nc2cc(Cl)ccc2OC)n1 | -23% | -12%
COc1ccccc1-n1cc(C(=O)N2CCCC(CO)(Cc3ccccc3C)C2)cn1 (stereo not given) | u | -24%
CS(=O)(=O)N(CC(=O)NC1CCCCC1)c1cccc(F)c1 | -21% | -1%
Cc1noc(C)c1S(=O)(=O)N(C)C[C@H]1Oc2ccc(NC(=O)NC3CCCCC3)cc2C(=O)N([C@H](C)CO)C[C@@H]1C | i | -10%
COC(=O)C1CSc2[nH]c(=O)sc2C1c1ccc(O)c(OC)c1 (stereo not given) | i | -9%
COc1ccc(C(=O)N2CCCC(C)(C(=O)NS(=O)(=O)C3CC3)C2)cc1 (stereo not given) | -2% | 5%
O=C(CN1/C(=C(/O)c2ccccc2)C(=O)c2ccccc2S1(=O)=O)c1ccccc1 | u | -28%
OCC(O)CNC(=S)NC1CCCCC1 (stereo not given) | -9% | -8%
OC(CN1CC=C(/C=C/c2ccc(Br)cc2)CC1)c1ccccc1 (stereo not given) | u | -13%
CCOc1ccc2c(c1)C(c1ccccc1)=NNC(c1ccccc1)=N2 | -15% | -10%
CCn1cc(C(=O)O)c(=O)c2cc(F)c(N3CCN(C(=S)NC(=O)c4cccc(F)c4)CC3)cc21 | -5% | -10%
C[n+]1ccc(CC2C(=[N+]([O-])[O-])C=Nc3ncnn32)cc1 (stereo not given) | i | 0%
COC(=O)C1=C(c2ccc(F)cc2OCc2ccccc2)C[C@@H]2CC[C@H]1N2C(=O)NC1CC1 | -4% | -22%
C=CCNC(=S)N/N=C/c1ccc(C)cc1C | i | -11%
CC(C)(C)c1cc(-c2csc(Nc3ccccc3)[n+]2Cc2ccc(C(=O)O)cc2)cc(C(C)(C)C)c1O | u | -14%
Cn1c(=O)n(C)c2cc([N+](=O)[O-])c(N3CCN(S(C)(=O)=O)CC3)cc21 | -4% | -25%
CN1C(=O)C(=Cc2ccc(N3CCOCC3)o2)C(=O)N(C)C1=S | -4% | 3%
COc1ccc(OC)c(NC(=O)C2(C)CCN2CCc2ccccc2)c1 (stereo not given) | -9% | -1%
COc1cc(C(=O)NCC(=O)OCc2cc(=O)oc3c(C)c(C)ccc23)cc(OC)c1OC | 2% | -4%
CCS(=O)(=O)Nc1cc(C(=O)N[C@H]2CCCCNC2=O)c2c(c1)nc(-c1ccccc1)n2C | i | -12%
CC(=O)Nc1ccc(S(=O)(=O)NCc2csc(-c3cccnc3)n2)cc1 | x | -1%
c1ccc(N2CCN(c3ncnc4c3oc3ccccc34)CC2)cc1 | i | -7%
COc1ccc(N(C(=O)c2ccccc2C)S(=O)(=O)c2cccs2)cc1 | u | u
CC(=O)Nc1ccc(S(=O)(=O)N2CCN(C(=O)N3CCCC3)CC2)cc1 | -5% | -19%
Cc1nccn1-c1ccc(NC(=O)[C@H]2O[C@@H](n3ccc(=O)[nH]c3=O)[C@H](O)[C@@H]2O)cc1 | 43%[activator] | 7%
Cn1c(=O)oc2cc(S(=O)(=O)N3CCC(C(=O)NCc4cccs4)CC3)ccc21 | -9% | -13%
O=C(c1ccco1)n1nc(-c2ccccc2)nc1SCc1ccccc1 | -20% | -8%
CCCCn1c(N)c(N(CC(C)C)C(=O)CN2C(=O)C3CCCCC3C2=O)c(=O)[nH]c1=O (stereo not given) | -14% | -3%
COCCn1c(C)cc(/C=C2/NC(=O)N(c3ccc(Cl)cc3)C2=O)c1C | -14% | -5%
COCCNC(=O)CSc1nnc(CCCN2C(=O)c3cccc4cccc(c34)C2=O)n1-c1ccccc1 | i | -4%
CCOc1ccc(-c2c(C)nn3c(C)c(C(=O)NCCc4ccc(C)cc4)cnc23)cc1OCC | i | -12%
CN(C)c1ccc(C2C=C(c3ccc(Cl)cc3OC(F)F)Nc3ncnn32)cc1 (stereo not given) | x | u
O=C(O)/C=C/c1cccc(B(O)O)c1 | -7% | -10%
Cc1nnc(SCC(=O)N2CCC(C(=O)Nc3nccs3)CC2)n1Cc1ccccc1 | -5% | 2%
Nc1nnnn1/N=C/c1ccccc1OCc1ccc(Cl)cc1Cl | u | -29%
COc1ccc(CCNC(=O)Cn2c(=O)n(-c3cc(OC)c(OC)c(OC)c3)c(=O)c3ccccc32)cc1OC | -2% | 3%
COc1ccc(Cl)cc1NC(=O)CN1c2ccccc2S(=O)(=O)c2ccccc21 | -3% | -2%
COc1ccc(-c2nc(CNS(=O)(=O)c3cccc(F)c3)cs2)cc1 | -16% | -12%
CCn1c(=O)cc(SCC(=O)N2CCN(C)CC2)c2ccccc21 | -15% | -11%
O=C(COC(=O)c1ccc(Br)o1)NCCCc1ccccc1 | -9% | -1%
O=C(NC1CCCCC1)N1CCCC(CNS(=O)(=O)Cc2ccccc2)C1 (stereo not given) | -20% | -13%
Cc1ccc(C)c(N2C(=O)c3ccc(C(=O)Nc4ccccn4)cc3C2=O)c1 | -28% | -20%
Cc1ccc(S(=O)(=O)N2C[C@H]3C(=O)C[C@@H](c4ccccc4)N(S(=O)(=O)c4ccc(C)cc4)[C@H]3C[C@H]2c2cccc(Cl)c2)cc1 | -13% | -19%
C/C(=N\N1CCN(Cc2ccccc2Cl)CC1)c1ccc([N+](=O)[O-])cc1 | -18% | -26%
Cc1ccc(C(=O)Nc2cccc(C(=O)OCc3cc(=O)n4nc(C5CC5)sc4n3)c2)cc1 | -18% | -17%
Cc1ccc(C)c2[nH]c(=O)c(C(c3nnnn3Cc3ccco3)N3CCc4ccccc4C3)cc12 (stereo not given) | -17% | -22%

Complete entries as entered above:
C/C(=N\N1CCN(Cc2ccccc2Cl)CC1)c1ccc([N+](=O)[O-])cc1 in the list: VACV mCherry inh: -18%; Vaccinia Venus: -26%
Cc1ccc(C)c2[nH]c(=O)c(C(c3nnnn3Cc3ccco3)N3CCc4ccccc4C3)cc12 (stereo not given) in the list: VACV mCherry inh: -17%; Vaccinia Venus: -22%

Screening results from PubChem.
